Screening data as filed in PubChem.
RecA intein inh: blocks M. tuberculosis RecA intein splicing; AID 2221; cell-free RecA intein splicing, fluorescence; 0.75% of 290,000 active; P9WHJ3; inhibition, %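 (about 9 µM by stock and volumes)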; in the data active = inhibition above about 30%; inconclusive = no clear call, values can overlap the other calls;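 note: 0% = vehicle wells and 100% = reference inhibitor control wells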
Target sequence (P9WHJ3 whole entry, looked up): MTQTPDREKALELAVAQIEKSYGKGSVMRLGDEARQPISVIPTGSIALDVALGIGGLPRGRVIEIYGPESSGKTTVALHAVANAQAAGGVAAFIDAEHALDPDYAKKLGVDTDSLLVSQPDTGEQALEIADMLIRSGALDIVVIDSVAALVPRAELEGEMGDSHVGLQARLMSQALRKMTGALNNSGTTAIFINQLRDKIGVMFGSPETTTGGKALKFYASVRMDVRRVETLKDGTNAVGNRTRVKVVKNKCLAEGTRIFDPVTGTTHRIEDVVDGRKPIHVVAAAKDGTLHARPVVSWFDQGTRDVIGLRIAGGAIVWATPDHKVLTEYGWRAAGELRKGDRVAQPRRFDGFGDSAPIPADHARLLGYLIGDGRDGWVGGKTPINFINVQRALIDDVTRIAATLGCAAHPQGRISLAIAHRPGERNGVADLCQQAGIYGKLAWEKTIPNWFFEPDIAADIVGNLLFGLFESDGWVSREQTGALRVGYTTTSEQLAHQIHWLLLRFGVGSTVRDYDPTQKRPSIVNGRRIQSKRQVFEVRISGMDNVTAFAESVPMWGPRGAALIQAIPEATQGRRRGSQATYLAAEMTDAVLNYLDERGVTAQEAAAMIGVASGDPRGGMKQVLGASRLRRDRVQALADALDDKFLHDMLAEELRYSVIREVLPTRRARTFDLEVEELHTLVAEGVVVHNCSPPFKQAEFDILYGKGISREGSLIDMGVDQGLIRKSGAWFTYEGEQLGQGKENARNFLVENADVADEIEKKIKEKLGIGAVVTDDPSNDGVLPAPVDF
Arbovirus inh: antivirals against arbovirus infection; AID 1251; 0.37% of 200,000 active; inhibition, % at 10 µM; arbovirus infection cell-based antiviral screen;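 active = inhibition from about 30%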;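 note: bluetongue infection of BSR cells; cell survival read as ATP light after 72 h; 0% = infected wells without compound and 100% = uninfected wells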
Mtb bLac sens: beta-lactam sensitization of Mtb H37Rv. M. tuberculosis H37Rv growth with meropenem, percent inhibition; hits of this screen are not shown here. 0.27% of 330,000 active. inhibition, % at 25 µM;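 active = about 74% or more and at least 40 points above the plate without the antibiotic, then above 30% in a dose series; inconclusive = first-round hits that could not be retested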;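 note: growth measured after seven days incubation then overnight dye step; 0% = bacteria only wells and 100% = bacteria with antibiotic; twin plates without the antibiotic show which effects depend on it; some results filed as inactive read as strong as hits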
YopH inh: blocks Yersinia enterocolitica YopH tyrosine phosphatase | fluorescence Ex485/Em525 | inhibition, %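 (about 10 µM by stock and volumes)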 | 0.16% of 140,000 active | AID 898;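 active = inhibition of 50% or more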;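 note: controls were vehicle for no effect and minimum signal wells for full effect; inactives centre near -20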
Mtb H37Rv: M. tuberculosis H37Rv growth inhibitors, H37Rv strain (AID 1626) | M. tuberculosis H37Rv growth inhibition; higher % means a stronger effect | one-dose inhibition, % at 10 µM; IC50 in µM for titrated hits | 0.95% of 220,000 active;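 active = confirmed in a dose series; inconclusive = inhibition above 80% but not taken into the dose series; inactive = below 80% or under 30% at every dose of the series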;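 note: bacteria incubated seven days before Alamar blue readout; 0% = bacteria only wells and 100% = bacteria with antibiotic wells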
Arbovirus inh repeat: second read-out of Arbovirus inh, no call of its own (marks repeat the call); inhibition, %; measured here: 10K subset replicate screen; many hits read low in the repeat;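 first of two repeat runs on a subset; 0% = infected and 100% = uninfected wells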
* hit, by the source's call; ? = inconclusive; . = no result given.

SMILES	RecA intein inh	Arbovirus inh	Mtb bLac sens	YopH inh	Mtb H37Rv	others
COc1nc2ccccc2nc1N1CCN(c2ccc(F)cc2)CC1	-3.3	.	6	.	.
COc1ccc(N(C(=O)c2ccco2)C(C(=O)NC2CCCC2)c2cccs2)cc1OC (centres undefined)	1.6	-3	-7	-8	1%
COc1cccc(Oc2ccc(C(F)(F)F)cc2NC(=O)CCc2nc3ccccc3c(=O)[nH]2)c1	7.8	.	18	.	.
Cc1ccc(NC(=O)c2ccc(S(=O)(=O)C(F)F)cc2)c(C)c1	-0.8	4	0	-39	-1%
O=S(=O)(c1ccc(-c2nnco2)cc1)N1CCCCC1	-2.5	.	-3	.	.
COc1ccc(C=O)cc1OS(=O)(=O)c1ccccc1[N+](=O)[O-]	-3.2	3	0	-6	-4%
CC(/C=N/NC(=O)c1cccnc1)=C\c1ccccc1	-4.8	-2	0	.	-2%
Cc1cccc(NC(=O)c2ccccc2NC(=O)C2CCCCC2)c1C	1.0	-7	10	-23	11%
Cc1ccc(S(=O)(=O)c2nnn3c2nc(N2CCOCC2)c2ccccc23)c(C)c1	0.7	.	-3	.	.
COc1ccc(OC)c(CNC(=O)C2CCC(=O)N2C(C)C)c1 (centres undefined)	10	.	4	.	.
COc1ccc(/C=N/c2oc(-c3ccccc3)cc2C#N)cc1	-1.6	-14	-6	-41	-4%
CCC(C)NC(=O)CSc1ncnc2sccc12 (centres undefined)	0.0	2	2	.	-8%
CC(C)=NNc1nc(-c2ccccc2)c(C)s1	-2.1	-9	-1	.	6%
Cc1ccc(C(=O)Nc2nnc(S(=O)(=O)Nc3ccccc3C)s2)cc1C	7.6	.	4	.	.
Cc1ccc(-c2nc3ccccc3c(=O)n2Cc2ccccc2)cc1	12	16	2	-30	11%
CCOc1ccc(Nc2nc(Cc3nnc(SCC(=O)NC4CCCC4)n3C)cs2)cc1	0.3	4	19	-28	-2%
CC(=O)c1sc(NC(=O)c2cccs2)nc1C	0.1	.	2	.	.
CCN(CC)S(=O)(=O)c1ccc(N2CCCCC2)c(NC(=O)/C(C#N)=C/c2ccc(OC)cc2)c1	-0.4	0	-4	-16	-1%
CC(=O)Oc1ccc(C2C3=C(CC(C)(C)CC3=O)Nc3cc4c(cc32)OCCO4)cc1 (centres undefined)	3.5	3	0	.	9%
CCn1c(-c2cc(-c3ccccc3)sc2N)n[nH]c1=S	2.8	.	-7	.	-1%
COc1ccccc1NC(=O)CCSc1nnc(-c2ccncc2)o1	8.5	2	1	.	3%
O=C1CC(c2cccnc2)c2cc3c(cc2N1)OCCO3 (centres undefined)	-0.2	-2	-16	10	4%	Arbovirus inh repeat=3
CCS(=O)(=O)c1nc(S(=O)(=O)c2ccc(C)cc2)c(NCc2ccccn2)s1	-3.4	4	10	.	4%
COc1ccc(/C=N/NC(=O)c2ccc3c(c2)NC(=O)C(C)(C)O3)cc1OC	-2.2	.	2	.	.
COc1ccc(C(=O)Nc2ccc(NC(=O)c3cccs3)cc2)cc1[N+](=O)[O-]	0.3	-19	-1	-34	3%
O=C(OCC(=O)N1CCN(Cc2ccccc2)CC1)c1ccc(Cl)cc1	-1.3	5	79	.	39%
Nc1ccc2c(c1)Cc1ccccc1-2	1.1	-10	97	-23	18µM*
CONc1nc2nonc2nc1NOC	0.4	-1	-7	-15	-5%
CC1C(=O)N(c2ccc(S(=O)(=O)N(C)C)cc2)C1(/C=C/c1ccccc1)C(=O)NC1CCCC1 (centres undefined)	-7.4	8	9	-29	14%
Cc1ccsc1CN(C)CC(=O)Nc1ccc([N+](=O)[O-])cc1Cl	14	.	-3	.	.
CC1(C)CN=C(NC2CCCCC2)S1	0.8	3	13	9	10%
O=C(CSC1=NS(=O)(=O)c2ccccc2N1)Nc1ccc(F)cc1	0.2	.	0	.	.
COC(=O)c1cccc(C(=O)Nc2cnc3ccccc3c2)n1	-1.0	6	2	-20	6%
COc1cccc(-c2cc(C(=O)Nc3ccc(OC)c(OC)c3)no2)c1	15	6	4	-22	10%
CC(=O)NCCNC(=O)CNC(=O)c1ccc(Cl)cc1	-1.2	1	-2	-26	0%
CN(C(=O)c1ccncc1)c1nnc(-c2cnccn2)s1	-2.3	0	-7	-4	-4%
Cc1c(NC(=O)Nc2cccc(C#N)c2)c(=O)n(-c2ccccc2)n1C	-0.5	.	?	.	.
Cc1cccc(C(C#N)c2ccc(Cl)nn2)c1 (centres undefined)	1.4	-1	2	.	7%
CC(C)OCCCn1c(=O)c2ccccc2n2c(CCC(=O)NC3CCN(Cc4ccccc4)CC3)nnc12	1.2	.	-4	.	.
Cc1cccc(C)c1NC(=O)C1CCCNC1 (centres undefined)	-2.1	-3	1	-20	-1%
O=C(COC(=O)c1c2c(nc3ccccc13)CCCCC2)c1ccc(Cl)s1	6.8	7	7	-38	30%
Cc1nnc(NC(=O)C(C)Sc2nnc(-c3ccco3)n2C)s1 (centres undefined)	-0.7	.	-13	.	.
COc1ccccc1CN1CCN(C(c2ccccc2)c2ccccc2)CC1	9.7	.	48	.	.
COc1ccc(CCNC(=O)CCC(=O)Nc2ccccc2[N+](=O)[O-])cc1OC	1.5	.	-4	.	.
C=CCN1C(=O)NC2(O)C(=O)c3ccccc3C12O (centres undefined)	0.6	9	9	-5	-1%
CCOC(=O)CCc1c(C)n(CC)c2ncnn2c1=O	1.4	-2	-1	-24	0%	Arbovirus inh repeat=4
O=c1cc(N2CCN(c3ccc(F)cc3)CC2)[nH]c(=O)n1Cc1ccc(F)cc1	2.3	-7	-5	-46	4%
CC(=O)c1ccc(NC(=O)C2(S(=O)(=O)c3ccccc3)CC2)cc1	-2.0	11	2	.	5%
CCOc1ccc(NC(=O)CSCC(=O)O)cc1	-1.5	-4	14	-31	-4%
Cc1cc(NC(=S)NC(=O)c2ccco2)c2ccccc2n1	1.0	5	3	.	-4%
O=C(Nc1ccccc1)Nc1nnc(CSCc2ccccc2Cl)s1	5.6	1	-1	-19	-5%
COc1cccc(N2CCN(c3ccc(N4C(=O)CCC4=O)cc3[N+](=O)[O-])CC2)c1	-1.9	5	-1	.	-2%
CC1CCc2sc3c(c2C1)c1ncnn1c(=O)n3CC(=O)c1ccc(Br)cc1 (centres undefined)	-0.2	.	2	-19	1%
COc1ccc(S(=O)(=O)N2CCN(Cc3ccc(Cl)cc3)CC2)cc1	.	9	12	-18	0%
CCOc1ncccc1C(=O)NCCCSc1ccccc1	4.5	.	0	.	.
NC1=NC2(CCCC2)N=C(Nc2ccccc2)N1	-1.8	.	3	.	-20%
CC(NC(=O)NC1CCCCC1)C(c1cccs1)N1CCOCC1 (centres undefined)	1.1	9	-4	-27	0%
Cc1cc(C(=O)Nc2ccc(F)c(Cl)c2)on1	0.8	.	-6	.	.
OCCNCCNCc1ccccc1OCc1ccccc1	7.1	-7	-9	.	-2%
CN(Cc1ccccc1)C(=O)c1nc2ccccn2c1CNCCOc1cccnc1	-1.0	3	-8	.	-9%
Continuation:
SMILES	RecA intein inh	Arbovirus inh	Mtb bLac sens	YopH inh	Mtb H37Rv	others
O=C(Nc1ccc(F)cc1F)c1sccc1SCc1cccc(C(F)(F)F)c1	3.8	8	-2	-23	.
C=CCn1c(SCc2ccc(F)cc2)nc2c1c(=O)[nH]c(=O)n2C	-0.6	-2	1	-29	13%	Arbovirus inh repeat=-3
O=C(COc1ccc(NC(=O)c2cccs2)cc1)c1ccc(F)cc1	0.1	.	-8	.	.
Cn1c(=O)c(=O)n(C)c2cc(S(=O)(=O)N3CCCCC3)ccc21	.	3	0	-22	-5%
CC(C)CN(C(=O)COc1ccc(Br)cc1C=O)C1CCS(=O)(=O)C1 (centres undefined)	0.3	.	-9	.	.
Cc1ccc(S(=O)(=O)N(C)CC(=O)OCC(=O)NC(=O)NC(C)C)cc1	1.6	.	-2	.	4%
C[C@]12N[C@H](Cc3ccccc31)c1ccccc12	-1.6	.	1	.	-5%
O=C(NCc1cccs1)C1CC(=O)N(c2ccc(Cl)cc2)C1 (centres undefined)	-0.4	4	-9	.	-2%
COCCNC(=O)CSc1ccccc1C(=O)NC1CCCc2ccccc21 (centres undefined)	2.2	.	-2	.	.
CCOc1nc(-c2ccncc2)nc2ccccc12	0.4	-5	7	-16	-20%
COc1cc(-c2csc(N3CCOCC3)n2)cc(OC)c1OC	2.8	0	-2	-8	-3%
Cc1ccc(N(C)S(=O)(=O)c2ccc(-c3cnc(C4CC4)o3)cc2)cc1	-1.6	.	1	.	.
CCC(=O)Nc1cc(NC(=O)CSc2nnc(C(C)C)n2CC)ccc1C	-3.8	5	-5	-21	.
Cc1cc(Cl)ccc1NC(=O)Cn1cncn1	3.9	1	1	.	7%
CC1CCc2c(sc(NC(=S)NC(=O)c3ccccc3)c2C#N)C1 (centres undefined)	-1.0	.	10	.	-5%

Of the compounds above, four contain a furan ring, fused or not.
SMILES	RecA intein inh	Arbovirus inh	Mtb bLac sens	YopH inh	Mtb H37Rv	others
COc1ccc(N(C(=O)c2ccco2)C(C(=O)NC2CCCC2)c2cccs2)cc1OC (centres undefined)	1.6	-3	-7	-8	1%
COc1ccc(/C=N/c2oc(-c3ccccc3)cc2C#N)cc1	-1.6	-14	-6	-41	-4%
Cc1nnc(NC(=O)C(C)Sc2nnc(-c3ccco3)n2C)s1 (centres undefined)	-0.7	.	-13	.	.
Cc1cc(NC(=S)NC(=O)c2ccco2)c2ccccc2n1	1.0	5	3	.	-4%

More structures follow.
SMILES	RecA intein inh	Arbovirus inh	Mtb bLac sens	YopH inh	Mtb H37Rv	others
COc1ccc(/C=C(\C)c2nc(C)c(-c3ccccc3)c(=O)[nH]2)cc1	-3.0	.	0	.	0%
CCSc1ccccc1C(=O)N=C1NC(=O)CC2C(=O)NCCN12 (centres undefined)	-2.4	6	2	.	-4%
c1ccc(CN2CCC(N3CCN(Cc4ccc5c(c4)OCO5)CC3)CC2)cc1	-1.6	.	-5	.	-16%
Cc1ccc(SCC(=O)N(Cc2nc(-c3ccccc3)no2)C(C)C)cc1	7.4	-2	0	-2	2%
O=C(NCCCn1ccnc1)C(=O)NCC1OCCCN1S(=O)(=O)c1ccc(Cl)cc1 (centres undefined)	-0.3	6	1	-27	1%
CN(NC(=S)Nc1ccc(OC(F)F)cc1)C(=S)Nc1ccc(OC(F)F)cc1	-1.1	8	-6	-3	-2%
O=c1cnn([C@@H]2O[C@H](CO)[C@@H](O)[C@H]2O)c(=O)[nH]1	-1.0	78*	-5	-7	0%
CCc1ccc(C(=O)Cn2ncc(Cl)c(Cl)c2=O)cc1	15	-32	91	-2	9%
COc1ccc(NC(=O)Oc2cc(C)ccc2C(C)C)cc1	1.1	.	-2	.	-5%
COc1ccc2cc3cc(C(=O)N4CCCCC4C)oc3nc2c1 (centres undefined)	5.4	.	3	.	.
Cc1ccc(N2C(=O)NC(=O)/C(=C\c3ccsc3)C2=O)cc1C	3.4	-7	9	-48	-12%
Cc1c(C(=O)NCCSCc2cccc(C(F)(F)F)c2)cnn1-c1ccc(F)cc1	11	.	97	.	54%
O=C(Nc1ccccc1)NC1CCCCC1	-2.2	3	-5	-14	-16%
COC(=O)C1CCCN1C(=O)COc1ccc(Cl)cc1Br (centres undefined)	-0.8	-4	-3	-37	-5%
O=[N+]([O-])c1ccc2[nH]c3nc4ccccc4nc3c2c1	-0.6	.	2	.	2%

4 records drawn at random from those above, as already listed:
SMILES	RecA intein inh	Arbovirus inh	Mtb bLac sens	YopH inh	Mtb H37Rv	others
O=C(CSC1=NS(=O)(=O)c2ccccc2N1)Nc1ccc(F)cc1	0.2	.	0	.	.
CC(=O)NCCNC(=O)CNC(=O)c1ccc(Cl)cc1	-1.2	1	-2	-26	0%
O=[N+]([O-])c1ccc2[nH]c3nc4ccccc4nc3c2c1	-0.6	.	2	.	2%
CCOc1nc(-c2ccncc2)nc2ccccc12	0.4	-5	7	-16	-20%

Further structures
SMILES	RecA intein inh	Arbovirus inh	Mtb bLac sens	YopH inh	Mtb H37Rv	others
O=C(CSc1nnc(-c2cnccn2)n1Cc1ccco1)c1ccc(Cl)c(Cl)c1	3.2	4	5	2	-2%
O=C(CSc1nncs1)Nc1ccc2c(c1)OCCO2	-0.1	3	-7	-21	3%
Cc1cccc2cc(COC(=O)c3ccccn3)c(=O)[nH]c12	-2.1	-3	-6	-40	0%
O=C(Cn1[nH]c(=O)c2ccccc2c1=O)NC1CCCCCC1	-9.0	-3	2	-5	-4%
CN1CCN(C(CNS(=O)(=O)c2ccc(F)cc2)c2cccnc2)CC1 (centres undefined)	6.1	2	-5	4	-8%
Cc1noc(C)c1CSc1ccccc1C(=O)Nc1nccs1	0.5	1	-6	-24	-2%
CC(C)C[C@H](NC(=O)N1CCn2c1nc1ccccc12)C(=O)NCc1ccccc1	1.6	.	7	.	.
O=C(c1cnccn1)N1CCc2ccccc21	2.3	-4	-7	-26	-1%
O=C(Nc1ccc(Cl)cc1C(=O)NCc1cccnc1)c1ccco1	-4.6	-5	-2	-20	0%

The list is partial; count on the stated rates, not on these rows.
